HNF4A DNA FP: change in binding of human HNF4 alpha to DNA. P41235. HNF4a-FITC DNA binding, fluorescence polarization, 1 h. activity change, % at 10 µM. hit rate 0.3% among 360,000. AID 1224865; in the data active = activity change above about 30%, passing the limit was not always enough;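 also: controls were the assay level and a saturating level of protein; the project sought stronger binding though the title names inhibitors; some compounds called inactive have numbers as strong as hits; positive values seem to mean higher polarization but the record does not say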
Target sequence (P41235 whole entry, looked up): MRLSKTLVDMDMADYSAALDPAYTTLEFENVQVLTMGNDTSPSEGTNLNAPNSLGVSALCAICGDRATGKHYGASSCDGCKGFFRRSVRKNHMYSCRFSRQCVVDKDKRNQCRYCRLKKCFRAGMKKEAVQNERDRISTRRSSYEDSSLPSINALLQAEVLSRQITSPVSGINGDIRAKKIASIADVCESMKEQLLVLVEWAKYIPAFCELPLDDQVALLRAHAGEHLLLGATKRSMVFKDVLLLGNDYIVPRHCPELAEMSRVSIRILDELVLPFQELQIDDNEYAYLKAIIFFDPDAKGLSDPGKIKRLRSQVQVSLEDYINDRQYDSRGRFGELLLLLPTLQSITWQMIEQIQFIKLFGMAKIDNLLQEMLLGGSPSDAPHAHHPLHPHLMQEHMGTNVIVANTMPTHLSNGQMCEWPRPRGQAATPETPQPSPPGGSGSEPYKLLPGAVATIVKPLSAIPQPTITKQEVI
Ecoli growth: inhibitors of Escherichia coli growth; OD600, 23 h; stronger effect = lower value; OD600 absorbance (test concentration not listed); hit rate 0.21% among 330,000; AID 1053175;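 active = OD600 absorbance below the run mean of sample wells minus 3.6 SD, in any replicate, cut at about 0.56 in these data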;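 also: stock transfer was 300 nL into about 60 µL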
Bfl-1 A1 inh: inhibitors of the anti-apoptotic protein A1, read as caspase activation | MEF A1-2A-BIM cells, Caspase-Glo 3/7 luminescence, 3 h; percent of clofoctol response, vehicle zero | caspase activation, % (no concentration beside the values) | hit rate 0.066% among 330,000 | AID 2462;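 active = over half of replicate activation scores above 10%, or exactly half above 10 with the replicate mean above 10; inconclusive = replicate mean below 10 yet half the replicates above 10; inactive = over half of replicates below 10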;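 also: wells of about 30 µL received 50 nL stock; many hits fall short of the cut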
B2AR ag: activates human beta-2 adrenergic receptor causing internalization. response, % (no concentration beside the values). AID 504454. Am2.2-beta2AR cells, FAP receptor internalization, flow cytometry; reference of the scale not given here. hit rate 0.43% among 340,000. P07550;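 active = response above a set limit, near 3 SD of response in nonfluorescent compounds, cut at about 42% in these data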;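 also: stock transfer was 100 nL into about 11 µL; a reference agonist was the positive control; negative values mostly stem from fluorescent compounds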
Target sequence (P07550 whole entry, looked up): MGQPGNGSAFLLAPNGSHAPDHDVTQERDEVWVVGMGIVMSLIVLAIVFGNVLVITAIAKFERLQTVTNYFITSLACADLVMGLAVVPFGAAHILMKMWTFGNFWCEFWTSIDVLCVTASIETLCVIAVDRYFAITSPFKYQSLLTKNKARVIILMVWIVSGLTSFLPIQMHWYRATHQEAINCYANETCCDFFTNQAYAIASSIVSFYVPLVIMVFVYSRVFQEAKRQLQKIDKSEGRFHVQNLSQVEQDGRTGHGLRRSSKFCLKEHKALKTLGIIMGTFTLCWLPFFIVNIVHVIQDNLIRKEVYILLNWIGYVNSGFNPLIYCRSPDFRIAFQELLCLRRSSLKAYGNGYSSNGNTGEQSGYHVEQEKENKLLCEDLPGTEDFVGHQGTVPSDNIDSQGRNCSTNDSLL
LANA-H2B inh: blocks KSHV LANA binding to histone H2A/H2B; cell-free LANA-H2A/H2B peptide, fluorescence polarization; inhibition, % (concentration not given with the values); hit rate 0.6% among 320,000; AID 2629; in the data active = inhibition mostly above about 10%, no sharp cut-off; inactive = mostly below about 6.7%;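 also: stock transfer was 7.5 nL into about 10 µL; 0% = median of vehicle wells and 100% = median of positive control wells; one replicate is shown; the record names a cut of 25% in any replicate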
Vif A3G: inhibitors of Vif binding to APOBEC3G peptide, primary screen, biochemical, TR-FRET, GST-Vif 1-94, biotin-A3G peptide, dose response retest (AID 1117319); TR-FRET GST-Vif / biotin-A3G peptide binding; higher % means a stronger effect; test concentration not given here; strong numbers were not always called active; inhibition, %, or IC50 in µM where a hit was titrated; hit rate 0.57% among 260,000;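 active = above the screen mean plus three standard deviations and confirmed in dose response; inconclusive = results disagree or hit not tested in dose response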;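 also: Vif residues 1-94 fused to GST binding biotinylated APOBEC3G peptide 110-148; 0% = full assay without inhibitor and 100% = GST in place of GST-Vif; retest series ran down from 100 µM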
UCH37 DUB inh: blocks the human deubiquitinase UCH37. Q9Y5K5. purified proteasome/UCH37, Ub-AMC cleavage fluorescence. inhibition, % (concentration not given with the values). hit rate 0.33% among 330,000;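 active = mean of two replicates above 20%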;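 also: 0% = compound-free wells with enzyme and 100% = wells lacking proteasome; stock transfer was 100 nL into about 20 µL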
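system = Proteasome-associated human UCH37 deubiquitinase | amount = 0.15 nM proteasome as dispensed | medium = pH 7.4 Tris-HCl (50 mM) with ovalbumin, ATP-MgCl2, DTT | incubation = 30 min preincubation with enzyme, 25 min cleavage at room temperature | detection = AMC fluorescence 355/460 nm | read-out basis = percent inhibition | controls = no-proteasome and no-compound wells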
An asterisk follows results filed as active; u = inconclusive; x = not tested or not shown.

SMILES | HNF4A DNA FP | Ecoli growth | Bfl-1 A1 inh | B2AR ag | LANA-H2B inh | Vif A3G | UCH37 DUB inh
COCCNC(=O)C(c1cccc(OC)c1)N(Cc1cccs1)C(=O)Cn1nnc2ccccc21 (stereo not drawn) | 0.8 | 0.724 | 0.2 | 4.8 | 6.2 | 31.5% | -0.8
CC(=O)[C@H]1CCC2C3CC=C4C[C@@H](O)CC[C@]4(C)C3CC[C@@]21C (stereo partly drawn) | 4.3 | 0.666 | -0.1 | -6.0 | -0.2 | -1.2% | -1.6
COc1cccc(/C=N/NC(=O)CCCC(=O)NC2CCCCC2)c1 | -2.0 | x | 0.7 | -2.2 | 6.5 | -13.6% | x
Cc1ccc(CC2S/C(=C(/C#N)C(=O)N3CCOCC3)N(c3ccccc3)C2=O)cc1 (stereo not drawn) | 0.2 | 0.675 | -0.1 | 5.6 | -0.9 | -0.6% | 1.4
O=C(CN(c1ccccc1)S(=O)(=O)c1ccccc1)N/N=C/c1ccco1 | 3.0 | x | -0.4 | -7.0 | 3.1 | x | x
CCc1nnc(NC(=O)CN2C(=O)c3ccccc3C2=O)s1 | -1.8 | 0.679 | 0.3 | -5.4 | 4.5 | -5.0% | 1.0
Cc1cn(CCC(=O)Nc2ccccc2N2CCOCC2)c2ccccc12 | -1.6 | 0.686 | 0.4 | 2.4 | 3.7 | 1.3% | 3.8
O=S(=O)(c1ccc(Cl)cc1)N1CCCC(c2nc(-c3ccc(F)cc3)no2)C1 (stereo not drawn) | 0.3 | 0.648 | 0.6 | -3.6 | -7.7 | x | 1.0
CCOc1ccc(C(=O)Nc2ccc3[nH]ncc3c2)cc1 | 3.5 | 0.717 | -8.7 | 2.2 | 1.7 | x | 1.4
Oc1ccc(-c2n[nH]c(=S)n2Cc2ccccc2)cc1 | -2.0 | 0.667 | 0.0 | -0.5 | -3.0 | 1.4% | -1.9
CCCCCn1c(=O)[nH]c2c(c1=O)CCC2 | 0.0 | 0.672 | -0.7 | -22.0 | -1.5 | 1.6% | 3.1
COc1cccc(C2=CC(c3cc(OC)ccc3OC)n3nnnc3N2)c1 (stereo not drawn) | 1.1 | 0.748 | -0.2 | -2.8 | -13.8 | u | -3.9
COc1cc(C(=O)N(C)Cc2cccc(OC)c2OC)ccc1OCC(=O)Nc1cccc(C(F)(F)F)c1 | 1.7 | 0.63 | 0.1 | 5.1 | -11.2 | -6.1% | 1.1
O=C(N1CCN(c2ccccc2)CC1)C12CC3CC(CC(C3)C1)C2 | 3.6 | 0.702 | 0.7 | -11.9 | -1.5 | -1.5% | 0.6
COc1cc2c(cc1NC(=O)COc1ccc3ccccc3c1)oc1ccccc12 | 3.2 | 0.717 | 0.3 | 0.2 | -1.2 | 1.3% | -35.3
CCOc1cccc(-c2cc(C(=O)N/N=C/c3ccc(OC)c(CN4CCOCC4)c3)c3ccccc3n2)c1 | -0.8 | x | 0.2 | 8.5 | 2.3 | x | x
CCOC(=O)c1c(C)[nH]c(C)c1S(=O)(=O)N1c2ccccc2CC1C (stereo not drawn) | 5.2 | 0.73 | 2.2 | 6.6 | -0.4 | x | 4.1
CCc1c(C)nc(SCC(=O)N2CCN(c3ccccc3)CC2)[nH]c1=O | 1.5 | 0.703 | 0.4 | -1.5 | -5.5 | -4.0% | 1.2
COc1ccc(N2CCN(C(=O)c3ccc(CNc4c(N5CCOCC5)c(=O)c4=O)cc3)CC2)cc1 | 0.5 | 0.713 | 0.6 | 9.8 | -2.5 | x | 6.6
O=C(Nc1ccc(F)cc1)C1CC(=O)n2ncnc2N1 (stereo not drawn) | -1.6 | 0.702 | 1.5 | -1.4 | -0.7 | x | 2.1
O=S(=O)(c1ccc(F)cc1)N1CCN=C1SCc1cccc(F)c1 | 2.0 | 0.686 | -0.1 | -1.5 | 3.5 | 1.3% | 0.4
CCCCc1c(C)nc2cc(-c3ccco3)[nH]n2c1=O | 7.2 | 0.536 | -0.9 | -21.1 | 0.3 | x | -11.2
Cc1ccc2cccc(OCc3ccc(Br)cc3)c2n1 | 2.6 | 0.69 | 1.6 | 11.4 | -6.0 | -6.0% | 4.0
OCCC1CN(Cc2ccc(F)cc2)CCN1CCc1ccccc1 (stereo not drawn) | -0.6 | 0.673 | 0.0 | 1.7 | 2.3 | x | 2.3
Cc1cccc(NC(=O)CCC(=O)N/N=C/c2ccncc2)c1 | -3.1 | x | 0.7 | -5.0 | 6.2 | 1.2% | x
Cc1ccc(/C=C/C(=O)N2CCN(c3cccc(C(F)(F)F)c3)CC2)cc1 | 1.3 | 0.705 | -0.1 | -9.0 | 0.2 | x | -5.2
COC(=O)[C@@H](NC(=O)NCc1cccc(OC)c1)C(C)C | 0.3 | 0.737 | 0.7 | 1.3 | -3.1 | 32.1% | 1.9
Cn1c(SCc2c(F)cccc2Cl)nc2ccccc2c1=O | 0.9 | 0.667 | 0.3 | -5.4 | x | -7.7% | 1.1
Cn1cc(S(=O)(=O)CC(=O)N2CCCc3ccccc32)c2ccccc21 | 13.1 | 0.791 | 0.2 | -3.7 | 0.7 | 1.3% | 0.1
CSc1ccc(-c2nnn(Cc3ccccn3)n2)cc1 | 1.4 | 0.674 | 0.8 | -9.9 | -2.9 | -1.3% | 0.4
O=C(Nc1ccc2ccccc2c1)c1ccccc1O | -7.8 | 0.649 | -10.0 | 13.5 | 4.3 | x | -2.3
COc1ccc(CCN(C)C(=O)CCNC(=O)c2ccc(Br)cc2)cc1OC | 2.3 | 0.71 | 1.1 | -11.1 | -4.7 | x | -0.5
CCn1ncc(CN2CCCC(C(=O)c3cccc(OC(C)C)c3)C2)c1C (stereo not drawn) | -2.0 | 0.692 | -0.2 | -5.6 | -6.3 | -1.6% | -6.3
CC(NC(=O)C(=O)N/N=C\c1cccc([N+](=O)[O-])c1)c1ccccc1 (stereo not drawn) | 0.8 | x | 1.8 | 3.0 | 1.5 | x | x
COc1ccc(OC)c(-c2cc(C(=O)Nc3sc4c(c3C#N)CCC(C)C4)c3ccccc3n2)c1 (stereo not drawn) | 2.5 | 0.776 | -0.6 | -5.3 | 0.3 | -0.6% | -10.1
CCCCCN1C=CC(=C2C(=O)c3ccccc3C2=O)C=C1 | 3.5 | 0.626 | -7.0 | -1.1 | 1.3 | 3.6% | 7.2
CCC(=O)Nc1ccc2nc3c(=O)[nH]c(=S)[nH]c3nc2c1 | -18.6 | 0.67 | -0.3 | -4.8 | -5.3 | x | 5.8
O=C(CSc1nc(-c2ccc(F)cc2)nc2c1Cc1ccccc1O2)Nc1ccc(C(=O)O)cc1 | -77.5 | 0.641 | x | -11.8 | x | x | 15.1
CC1=C(C(=O)OCC2CCCO2)C(c2ccc(C)cc2)C2=C(CC(C)(C)CC2=O)N1 (stereo not drawn) | 2.6 | 0.737 | 0.8 | -12.7 | -1.6 | -10.7% | -29.0
Cc1noc(C)c1S(=O)(=O)N1CCCC(C(=O)N2CCN(C3CCCCC3)CC2)C1 (stereo not drawn) | 1.4 | 0.728 | 0.1 | -1.4 | -3.9 | 2.1% | 2.0
Cc1cc2nc(-c3ccc(SCc4ccc(C#N)cc4)nc3)[nH]c2cc1C | -2.5 | 0.711 | -0.4 | 2.6 | 1.3 | -4.7% | -43.7
CN(C)C(=O)COc1ccc2ccc(=O)oc2c1 | 0.3 | 0.632 | 0.5 | -0.3 | -5.8 | 3.5% | -45.9
COC(=O)c1cc(Br)c(=O)n(Cc2ccco2)c1 | -0.6 | 0.723 | -0.1 | -9.9 | 2.2 | -1.1% | 0.8
O=C(NC1=NCCS1)C12CC3CC(C1)CC(C(=O)NC1=NCCS1)(C3)C2 | 2.3 | 0.719 | 1.8 | 2.0 | -1.0 | -1.3% | -0.1
CCOC(=O)c1[nH]c2ccc(C)cc2c1N=C(C)N(C)C | -2.0 | 0.697 | -0.7 | 12.3 | 1.6 | 15.0% | -1.1
Cc1cc(C)c(OCC(=O)N/N=C/c2ccco2)c(C)c1 | -2.8 | x | -0.7 | 5.3 | 0.8 | -3.0% | x
COc1ccc(/C=C/C(=O)OCC(=O)NCc2ccccc2Cl)cc1OC | 0.4 | 0.658 | -0.5 | 4.8 | -0.5 | -4.7% | -44.1
CC(=O)C(C)Oc1ccc2c3c(c(=O)oc2c1)CCCC3 (stereo not drawn) | -2.2 | 0.668 | 0.4 | -0.4 | 1.5 | -6.3% | -73.2

Complete entries from above. Screens in order: HNF4A DNA FP	Ecoli growth	Bfl-1 A1 inh	B2AR ag	LANA-H2B inh	Vif A3G	UCH37 DUB inh
COc1cccc(/C=N/NC(=O)CCCC(=O)NC2CCCCC2)c1 reads -2.0	x	0.7	-2.2	6.5	-13.6%	x
Cc1ccc(/C=C/C(=O)N2CCN(c3cccc(C(F)(F)F)c3)CC2)cc1 reads 1.3	0.705	-0.1	-9.0	0.2	x	-5.2

Further structures follow.
SMILES | HNF4A DNA FP | Ecoli growth | Bfl-1 A1 inh | B2AR ag | LANA-H2B inh | Vif A3G | UCH37 DUB inh
Cc1noc(C)c1C(=O)OC(C(=O)NC1CCCC1)c1ccc(F)cc1 (stereo not drawn) | -1.6 | 0.654 | 0.1 | 6.3 | -2.0 | -4.5% | 0.2
CN(c1ccccc1)S(=O)(=O)c1cccc(C(=O)OCC(=O)NCc2ccccc2)c1 | 4.4 | 0.665 | -0.2 | -5.5 | 9.6 | 14.0% | 1.2
CCOc1ccc(C2/C(=C(\O)c3ccc4c(c3)OCCO4)C(=O)C(=O)N2CCN2CCOCC2)cc1OCC (stereo not drawn) | 1.0 | 0.708 | 0.8 | 0.2 | 3.6 | -1.0% | 11.3
CCOC(=O)C1=C(O)/C(=C\c2cccs2)N=C1C | 0.3 | 0.691 | 0.0 | -13.3 | 2.2 | 15.1% | 9.6
CCCN1C(=O)C(O)(CC(=O)c2ccc3c(c2)OCCO3)c2ccccc21 (stereo not drawn) | 5.2 | 0.785 | -0.1 | -1.6 | -7.1 | 31.8% | 4.1
COc1cccc(N2CCN(c3ccc(N4C(=O)CCC4=O)cc3[N+](=O)[O-])CC2)c1 | -3.0 | 0.695 | -1.8 | 0.4 | -2.2 | -3.1% | 6.5
COc1ccccc1C(=O)NC1CCN(C(=O)Nc2ccc(C)cc2)CC1 | 0.9 | 0.663 | 0.3 | -3.9 | -7.6 | x | 4.6
COc1cccc(/C=N/n2cnc3ccccc32)c1OC | 7.7 | x | -1.9 | -3.2 | -2.1 | -0.6% | x
CC[N+]1(CC(O)COC2CC(C)CC(C)(C)C2)CCOCC1 (stereo not drawn) | 2.5 | 0.641 | -1.2 | 0.9 | 1.1 | x | 5.2
O=C1CSC(c2cccnc2)N1c1cccc(Cl)c1 (stereo not drawn) | -1.0 | 0.718 | 0.4 | 1.8 | -2.3 | 9.9% | 2.8
O=C(COC(=O)c1cc2ccccc2oc1=O)Nc1cccc(S(=O)(=O)N2CCCCCC2)c1 | -0.7 | 0.704 | 0.4 | 1.2 | -0.6 | -2.8% | -28.1
CC1CCc2nn(CC(=O)N3CCCCCC3)cc2C1 (stereo not drawn) | 2.1 | 0.669 | 0.6 | 8.9 | 2.4 | 8.9% | 3.3
O=C(NCc1cc2ccccc2[nH]1)c1ccccc1F | 0.2 | 0.629 | 0.5 | 20.1 | -11.8 | x | 3.7
Cc1ccc(NC(=O)C2=C(O)c3sccc3N(C)S2(=O)=O)cc1 | 4.8 | 0.701 | -0.1 | -9.8 | 2.4 | -1.5% | 14.2
O=C(NCC(=O)N(CC1CCCO1)C(C(=O)NC1CCCCC1)c1ccccc1)c1ccco1 (stereo not drawn) | 1.8 | 0.713 | 2.5 | -14.0 | -3.8 | -0.9% | 4.7

Bioassay records (PubChem)
